TRPML1 blocker = human mucolipin-1 channel inhibition; 390,000 tested, 0.02% active; activity change, negative = inhibition, % (no concentration beside the values); TRPML1-inducible cells, Ca2+ dye fluorescence, FDSS; stronger effect = lower value; inhibition of EC80 agonist-evoked calcium signal; AID 624415; in the data active means activity change below about -50%; inconclusive means about -30% to -50%; inactive means above about -30%;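 further: stimulus is agonist 54-4 at its EC80 concentration; on the % scale 0 is the no-effect control and ±100 the full control effect; compound concentration not given in the record; the text of the record puts the active cut at -80%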
Target sequence (Q9GZU1 whole entry, looked up): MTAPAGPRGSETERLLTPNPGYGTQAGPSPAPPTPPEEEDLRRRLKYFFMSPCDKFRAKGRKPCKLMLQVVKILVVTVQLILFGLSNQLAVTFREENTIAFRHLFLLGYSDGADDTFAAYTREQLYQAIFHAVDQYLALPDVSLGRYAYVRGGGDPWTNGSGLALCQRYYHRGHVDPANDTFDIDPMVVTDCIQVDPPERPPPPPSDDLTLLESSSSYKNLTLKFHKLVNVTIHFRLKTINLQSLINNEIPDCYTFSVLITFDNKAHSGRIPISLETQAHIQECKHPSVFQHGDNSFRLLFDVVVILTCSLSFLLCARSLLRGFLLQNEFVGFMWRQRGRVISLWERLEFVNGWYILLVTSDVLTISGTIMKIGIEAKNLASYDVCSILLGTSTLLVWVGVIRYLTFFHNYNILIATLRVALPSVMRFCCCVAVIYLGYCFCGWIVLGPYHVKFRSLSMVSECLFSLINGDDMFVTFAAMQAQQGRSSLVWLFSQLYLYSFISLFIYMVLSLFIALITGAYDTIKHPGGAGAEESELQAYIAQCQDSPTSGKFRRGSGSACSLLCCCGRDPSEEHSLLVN
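Calcium fluorescence in TRPML1-DL cells induced overnight with Tet: a 110 s read after compound pin addition, then a 110 s antagonist read after challenge with 54-4 at 4 uM final (EC80).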
TRPML1 ag = agonists of human TRPML1 channel; Q9GZU1; TRPML1-expressing cells, Ca2+ dye fluorescence, FDSS; host cell line not named in the record; reference of the full effect not given here; activation, % (test concentration not listed); 410,000 tested, 0.12% active; in the data active = activation above about 50%; inconclusive = about 30% to 50%; inactive = below about 30%; further: 0% is about no effect; the text of the record puts the active cut at 80%
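Kinetic FDSS Ca2+ read in Tet-induced TRPML1-DL cells (ABD Ca8 dye plus quencher, 45-90 min RT loading): baseline, then compound, then 110 s agonist window; EC80 agonist 54-4 at 4uM final added afterwards for a 110 s antagonist window.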
* hit, by the source's call. Not all compounds are listed; count on the stated rates, not on these rows.

Order of values – TRPML1 blocker, TRPML1 ag
COc1ccc(N2CCN(C(=O)c3ccc(-c4nc(COc5ccccc5)c(C)o4)cc3)CC2)cc1
  -11, -0.5
C=C1CN(C(C(=O)OC)C(C)C)S(=O)(=O)c2ccc(F)cc21 (stereo not given)
  16, 0.8
Cc1ccc(C)c(N2CCN(C(=O)Cn3ncc4c(=O)oc5ccccc5c43)CC2)c1
  -7, -0.7
O=C(NCc1ccccc1)c1ccc(Cn2c(=O)c3cccn3c3cccnc32)cc1
  4, 0.2
O=C(CSc1nc(=O)n(Cc2ccccn2)c2c1CCC2)Nc1cccc(Cl)c1
  44, 1.0
CCCOc1ccc(-c2nn(-c3ccccc3)cc2C2NC(=O)NC(C)=C2C(=O)OC)cc1C (stereo not given)
  -14, 0.9
CCC(C(=O)NCCc1ccccc1)n1nc(C)n2c(cc3sccc32)c1=O (stereo not given)
  5, 0.8
Cc1ccc(N(CC(=O)Nc2ccc(OC(F)(F)F)cc2)S(=O)(=O)c2c(C)noc2C)cc1
  -15, 0.2
COc1ccc(NC(=O)CSc2c(C(C)C)cnc3c2c(=O)n(C)c(=O)n3C)c(OC)c1
  -14, 1.5
CC1CCCN(C(=O)c2cc3c(=O)n(C)c4ccccc4c3s2)C1 (stereo not given)
  -3, 0.0
O=C(CSc1oc(-c2ccccc2)nc1S(=O)(=O)c1ccccc1)c1ccccc1
  65, 0.6
CCOc1ccc(C2CC(=O)Nc3c2c(=O)[nH]c2ncnn32)cc1 (stereo not given)
  4, 2.5
CN(C)c1ccc(/C=C(\C#N)c2nc3ccccc3c(=O)[nH]2)cc1
  -5, 3.6
CCCN(C(=O)c1cc(S(=O)(=O)N2CCc3ccccc32)cn1C)c1ccc(OCC)cc1
  0, 1.8
Cc1ccc(CNC(=O)c2nn(-c3ccc(Cl)cc3)nc2CO)cc1
  3, 0.9
COc1cccc(CSc2nc3n(n2)C(c2cccs2)C(C(=O)Nc2ccccc2C)=C(C)N3)c1 (stereo not given)
  -1, 0.7
CCCSC1=NC2(CCN(C(=O)NC3CCCCC3)CC2)N=C1c1ccc(OC)cc1
  -4, -0.4
CCC1CCCCN1CCCNC(=O)c1cc2c(=O)n(CC)c3ccccc3c2s1 (stereo not given)
  4, -0.6
COc1ccc(NC(=O)Cn2c(CCC(=O)O)ccc2-c2ccccc2)cc1Cl
  -2, 1.1
COc1ccc(-c2nc(SCC(=O)NCCc3ccc(OC)c(OC)c3)n[nH]2)cc1
  -24, 1.9
COc1ccc(-c2ccc(CCC(=O)O)n2-c2ccccc2C(F)(F)F)cc1
  10, -0.5
O=c1c2c3c(sc2n(Cc2ccc(F)cc2Cl)c(=O)n1-c1ccc(Cl)cc1)CCC3
  -10, 1.3
CCOc1ccc(NC(=O)C(C)Sc2nc3ncccc3o2)cc1 (stereo not given)
  18, 0.9
CC(=O)c1ccc(NC(=O)CCc2c(C)nc3c(c2C)c(=O)n(C)c(=O)n3C)cc1
  -9, -0.7
CCn1c(=O)n(-c2ccc(F)c(Cl)c2)c(=O)c2sc3ccccc3c21
  2, -0.2
Cc1ccc2oc3c(c(=O)c2c1)C(c1cccc(O)c1)N(Cc1ccccc1Cl)C3=O (stereo not given)
  5, 3.4
COc1ccc2c(Sc3ccc(C)cc3)c(C(=O)NC(C)C)[nH]c2c1
  3, 0.4
CCCCN(CCCC)CCNC(=O)c1cc(-c2cccnc2)nc2ccc(S(=O)(=O)N3CCC(C)CC3)cc12
  -20, 1.3
COCCCNC(=O)CCCn1c(SCC(=O)c2ccc(F)cc2)nc2c(sc3ccccc32)c1=O
  -3, 3.0
CCOCCc1nnc(NC(=O)C(=O)c2cc(C)n(-c3cccc(C)c3)c2C)s1
  36, 0.4
CCOC(=O)c1c(C)n(-c2ccccc2)c2ccc(OC(=O)c3ccccc3NC(=O)C(C)C)cc12
  1, 0.5
CCC(CC)c1nn2c(=O)cc(COc3ccc(NC(=O)c4ccc(C)cc4)cc3)nc2s1
  -9, -0.5
COc1cc(Cl)c(NC(=O)CCS(=O)(=O)c2ccc3c(c2)NC(=O)CO3)c(OC)c1
  -14, 2.0
COC(=O)c1ccc(NC(=O)CSc2nc3cc4ccccc4cc3[nH]2)cc1
  -5, -0.6
CCOc1ccc(-c2cccc(NS(=O)(=O)c3ccc(C)s3)c2)nn1
  -19, 2.8
CCC1CN(C(=O)N2CCC(C(=O)NCCC3=CCCCC3)CC2)c2cc(C)ccc2O1 (stereo not given)
  -21, 1.1
Cc1cccc(NC(=O)CSc2nc3ccccc3nc2N2CCOCC2)c1C
  -13, 0.1
CN(C(=O)CSc1nc2ccc(NC(=O)c3cccs3)cc2s1)c1ccccc1
  2, -0.3
CCOC(=O)c1ccc(NC(=O)c2cn(-c3ccccc3)nc2-c2ccc(C)cc2)cc1
  -3, -0.4
Cc1nn2c(=O)cc(COC(=O)c3ccc(F)cc3)nc2s1
  10, -0.2
COc1ccc(Cn2ccc3nc(C)c(C(=O)Nc4cc(C)cc(C)c4)cc3c2=O)cc1
  13, 2.1
CC(C)c1cnc2c(c1SCC(=O)Nc1cccc([N+](=O)[O-])c1)c(=O)n(C)c(=O)n2C
  -11, 4.3
Cc1ccc(NC(=O)[C@H](Cc2ccccc2)N2Cc3ccccc3C2=O)cc1F
  28, -0.4
CCOC(=O)c1c(C)oc2nc(C)nc(NCCc3ccc(OCC)c(OCC)c3)c12
  5, 1.8
Cc1ccccc1NC(=O)c1ccc(N(Cc2ccccc2)S(C)(=O)=O)cc1
  2, -0.7
COc1ccccc1CNC(=O)CSc1nc(=O)[nH]c2c1CCCC2
  3, -0.6
COc1cccc(N2CC(NC(=O)c3ccc(S(=O)(=O)N4CCCCC4)cc3)CC2=O)c1 (stereo not given)
  11, -0.5
CCCOc1ccccc1Cn1c(=O)sc2ccccc21
  15, 2.7
O=C(Cn1cc(SCc2ccc(F)cc2)c2ccccc21)N1CCCCC1
  -11, 0.3
Cc1ccc(S(=O)(=O)N2CCN(Cc3ccccc3Cl)CC2)cc1
  45, -0.4
CCc1ccccc1N(CC)C(=O)c1cc2c(s1)-c1ccccc1SC2
  1, 1.6
Cc1cc(C(=O)NCc2ccccc2)c2c(C)nn(-c3cccc(Cl)c3C)c2n1
  -8, -0.9
Cc1cc(Cl)ccc1NC(=O)CN1C(=O)COc2ccc(S(=O)(=O)N3CCC(C)CC3)cc21
  -30, 2.4
CN(C1CCCCC1)S(=O)(=O)c1ccc2c(c1)c(=O)c(C(=O)N1CCN(c3ccccc3F)CC1)cn2C
  -8, 0.2
CCOC(=O)c1c(S(=O)(=O)N2CCC(C(=O)N3CCN(c4cccc(C)c4C)CC3)CC2)c(C)n(C)c1C
  15, 0.1
Fc1ccc(NCc2nc3ccccc3n2CCOc2ccccc2Cl)cc1
  9, 2.6
CCOc1ccc(CCNC(=O)CCc2cn(Cc3ccc(C)cc3)c3ccccc23)cc1
  -11, -0.1
Cc1ccc(Cl)cc1NC(=O)CSc1nccn1C
  0, 0.2
Cc1cccc(NC(=O)Nc2nnc(N(C)C3CCCCC3)s2)c1C
  -4, -0.3
Oc1ccc(-c2nc3ccccn3c2Nc2ccc3c(c2)OCCO3)cc1
  -9, 0.4

Next part
| smiles | TRPML1 blocker | TRPML1 ag |
| --- | --- | --- |
| COc1ccccc1C(=O)Nc1ccccc1C(=O)OCc1cc(=O)n2ccsc2n1 | 3 | -0.5 |
| Cc1ccc2c(c1)N(C(=O)Nc1cccc3c1CCCC3)CC(C)O2 (stereo not given) | 66 | 2.2 |
| Cc1ccc(NC(=O)Cn2ncc3c4ccccc4n(Cc4ccccc4)c3c2=O)cc1Cl | -8 | 1.7 |
| Cc1cc(-n2c(C)nc3ccccc3c2=O)ccc1NC(=O)c1ccc(C)c([N+](=O)[O-])c1 | -1 | 0.6 |
| COc1cc2nc(Nc3cccc(C)c3)nc(N)c2cc1OC | 12 | 0.1 |
| CSc1ccc(CCNC(=O)c2cc(C)nc3c2c(C)nn3-c2ccccc2)cc1 | -5 | -0.5 |
| Cc1noc(NS(=O)(=O)c2ccc(NC(=O)COc3ccccc3Br)cc2)c1C | 1 | -0.7 |
| Cc1ccc(CSCCC(=O)N2CCN(c3cc(C)ccc3C)CC2)cc1 | 0 | 3.1 |
| COc1ccc(-c2nc3nc(C)cc(C)n3c2Nc2c(C)cccc2C)cc1 | 19 | 0.1 |
| CCn1cc(C(=O)NCCOC)c(=O)c2cc(S(=O)(=O)N3CCOCC3)ccc21 | -7 | -0.3 |
| CSCC[C@@H](C(=O)Nc1cccc(F)c1)N1Cc2ccccc2C1=O | 6 | -1.0 |
| CCc1cccc(NC(=O)CCn2c(=O)c3cccn3c3cccnc32)c1 | -2 | -0.8 |
| Cc1ccc(N2CCn3c2nc2c3c(=O)n(Cc3cccc(Cl)c3)c(=O)n2C)cc1C | 16 | -0.6 |
| Cc1cccn2c(=O)c(C(=O)N3CCN(c4ccccc4F)CC3)cnc12 | -4 | 0.8 |
| COc1ccc(-c2oc3ncn4nc(COc5ccccc5C)nc4c3c2-c2ccc(OC)cc2)cc1 | 24 | -0.5 |
| COc1ccc(NC(=O)N2CCC(n3c(C)nc4cccnc43)CC2)cc1OC | 6 | 0.2 |
| Cc1ccc(NS(=O)(=O)c2cn(C)c(C)n2)c(Br)c1 | 0 | 0.3 |
| Cc1c(Cl)cccc1NC(=O)CSc1nc(=O)n(Cc2ccco2)c2c1CCC2 | 27 | 4.0 |
| COc1ccc(C(=O)N2c3ccc(C)cc3C(C)(c3ccccc3)CC2(C)C)cc1 (stereo not given) | 70 | 2.1 |
| Cc1ccc(CCNC(=O)CCCn2nc(C)c3c(C)n(-c4ccccc4)nc3c2=O)cc1 | 12 | 1.4 |

7 records picked at random from the list so far, as already listed:
| smiles | TRPML1 blocker | TRPML1 ag |
| --- | --- | --- |
| Cc1cccn2c(=O)c(C(=O)N3CCN(c4ccccc4F)CC3)cnc12 | -4 | 0.8 |
| COc1ccc(C(=O)N2c3ccc(C)cc3C(C)(c3ccccc3)CC2(C)C)cc1 (stereo not given) | 70 | 2.1 |
| COc1ccccc1C(=O)Nc1ccccc1C(=O)OCc1cc(=O)n2ccsc2n1 | 3 | -0.5 |
| Cc1ccc(NS(=O)(=O)c2cn(C)c(C)n2)c(Br)c1 | 0 | 0.3 |
| COc1ccc(NC(=O)N2CCC(n3c(C)nc4cccnc43)CC2)cc1OC | 6 | 0.2 |
| Cc1ccc(CSCCC(=O)N2CCN(c3cc(C)ccc3C)CC2)cc1 | 0 | 3.1 |
| Cc1cc(-n2c(C)nc3ccccc3c2=O)ccc1NC(=O)c1ccc(C)c([N+](=O)[O-])c1 | -1 | 0.6 |

The list continues:
| smiles | TRPML1 blocker | TRPML1 ag |
| --- | --- | --- |
| CC(=O)c1ccc(NC(=O)Cn2nc(N3CCN(c4ccccc4)CC3)ccc2=O)cc1 | 16 | 1.0 |
| CCn1cc2nc(SCC(=O)Nc3ccc(C)cc3)n(Cc3ccc(C)cc3)c(=O)c2n1 | 10 | 0.0 |
| CCc1ccccc1NC(=O)N1CCC(CN2CCc3ccccc3C2)CC1 | -25 | 0.8 |
| COc1ccc(OC)c(NC(=O)N2CCC(CN3CCCCC3)CC2)c1 | -6 | -0.5 |
| Cc1ccc(OCC(=O)Nc2cccc(C(=O)OCc3cc(=O)n4nc(C)sc4n3)c2)cc1 | 12 | -0.8 |
| Cc1ccc(NC(=O)CSc2nc3ccc(Br)cc3[nH]2)c(C)c1 | 3 | 2.5 |
| CCOc1ccc(-c2nc(SCC(=O)Nc3ccc(C)c(C)c3)n3[nH]c(=O)cc3n2)cc1 | 17 | -0.8 |
| CCc1nn(CC(=O)NCc2ccccc2)c(=O)c2cccn12 | 4 | 1.2 |
| Cc1ccc(-n2ncc(C(=O)NCCN3CCc4ccccc4C3)c2C2CCN(C(=O)OC(C)(C)C)CC2)c(C)c1 | -1 | 0.8 |
| CCOC(=O)c1cc(OC(=O)c2cccc(C)c2)n(-c2ccccc2)n1 | 4 | 2.3 |
| Cc1cc(C)cc(-n2c(SCC(N)=O)nc3c([nH]c4ccccc43)c2=O)c1 | 17 | -0.3 |
| COc1ccc(N2CCN(C(=O)c3cc4c(=O)n(Cc5cccnc5)ccc4nc3C)CC2)cc1 | 21 | 2.3 |
| COc1cc(NC(=O)c2cc(-c3cccs3)on2)c(OC)cc1Cl | 28 | -0.6 |
| Cc1ccc2nc(CN3CCN(C(=O)Nc4ccc(F)cc4)CC3)oc2c1 | -26 | -0.8 |
| Cc1cccc(OCC(=O)Nc2ccccc2C(=O)OCc2cc(=O)n3nc(C4CC4)sc3n2)c1 | 7 | -0.5 |
| COc1cc(Cl)c(C)cc1NC(=O)Cn1cnc2sc(C)c(S(=O)(=O)N3CCCCC3)c2c1=O | -3 | 1.0 |
| O=C(COc1ccccc1-c1nc(-c2ccccc2)no1)Nc1cccc([N+](=O)[O-])c1 | -14 | -0.3 |
| O=C(NCC1CC1)C1(C(F)(F)F)C/C(=C\CCO)CCCO1 (stereo not given) | 10 | 0.4 |
| Cn1ncc2c(NCc3cccc(Cl)c3)ncnc21 | 1 | -0.7 |
| CCCOc1ccc(CNC(=O)C(CC)n2nc(C)c3sc4ccccc4c3c2=O)cc1 (stereo not given) | -7 | 0.2 |
| COc1ccc(Cl)cc1C(=O)Nc1c2c(nn1-c1ccc(Cl)cc1)CS(=O)(=O)C2 | 13 | 0.8 |
| CCC1Oc2ccc(C)cc2N(CC(=O)NCc2ccc(F)cc2)C1=O (stereo not given) | -4 | -0.5 |
| CCC(=O)Nc1cc(C)c(O)c(-c2nc3ncccc3o2)c1 | -3 | 0.5 |
| O=C(COc1ccc(Cl)cc1)Nc1nnc2n1CCS2 | 9 | 0.4 |
| CCOc1cc(CNC(=O)C2COc3ccccc3C2)cc(OCC)c1OCC (stereo not given) | -20 | 1.5 |

Screening data as filed in PubChem BioAssay.
